Assay outcomes deposited in PubChem BioAssay by several laboratories.
ugtP null kill: compounds lethal to S. aureus RN4220 ugtP deletion mutant; actives 0.54% (n = 330,000); OD600 growth, 16 h; some inactives read as strong as hits; growth inhibition, % (no concentration beside the values); AID 1259309;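 active = z-score under -3 and OD600 up to 0.15 on both plates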;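 note: plate controls were untreated wells for no effect and antibiotic for full effect; wells of about 80 µL received 100 nL stock; the first replicate is given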
RN4220 kill: kills Staphylococcus aureus RN4220; S. aureus RN4220 growth, OD600, 16 h; inhibition, % (test concentration not listed); actives 0.33% (n = 330,000); AID 1259311;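 active = z-score of -3 or lower and OD600 up to 0.18 on both plates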;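 note: plate controls were untreated cells for no effect and reference antibiotic for full effect; stock transfer was 100 nL into about 80 µL; one replicate is shown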
BJeLR lethal: kills HRASV12-expressing BJeLR cells | BJeLR (HRASV12) viability, CellTiter-Glo ATP luminescence, 48 h; reference of the scale not given here | inhibition, % (test concentration not listed) | actives 0.17% (n = 300,000);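 active = replicate mean above 50%; inconclusive = above 50% but judged a plate artefact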;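 note: 50 nL library stock added to about 25 µL; numbers are from one replicate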
PrP 5UTR inh: inhibition of PrP 5' UTR reporter expression; inhibition, % (no concentration beside the values); actives 0.35% (n = 340,000); AID 488862; cell-based PrP 5' UTR mRNA reporter, plate reader;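 active = every replicate at 50% or more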;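 note: 0 = median of the neutral control wells; tested in H4 reporter cells; numbers are from one replicate; inactives centre near -14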
Bead autofluor: flagged as autofluorescent in microsphere protease counterscreen; compound autofluorescence counterscreen, microsphere flow cytometry; stronger effect = higher value; fluorescence intensity (no concentration beside the values); actives 3.1% (n = 360,000); AID 624483;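 active = at least 3 SD above the mean of all compounds, about 16000 in these data; inconclusive = too few beads counted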;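 note: 100 nL of 1 mM stock went into each well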
Mtb hypoxia rep: inhibitors of hypoxia-regulated fluorescent reporter in Mycobacterium tuberculosis; AID 1159583; fluorescence inhibition, % (no concentration beside the values); actives 0.1% (n = 300,000); M. tuberculosis hypoxia-regulated fluorescent reporter, fluorescence;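 active = 35 to 45% if threefold the growth effect, above 45% if 1.5-fold the growth effect; inactive = the rest, general growth blockers included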;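 note: wells of about 50 µL received 100 nL stock; 0% = vehicle wells and 100% = reference inhibitor wells; whole bacteria with a GFP reporter of the hypoxia response; strong numbers were not always called active; many hits fall short of the cut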
Mtb hypoxia rep growth: recorded beside Mtb hypoxia rep, whose call it bears; growth inhibition, %; measured here: M. tuberculosis growth (absorbance);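 0% = vehicle and 100% = reference antibiotic; read after six days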
* marks the source's active call; other numbers are inactive results; ? = inconclusive; / = no result given.

SMILES	ugtP null kill	RN4220 kill	BJeLR lethal	PrP 5UTR inh	Bead autofluor	Mtb hypoxia rep	Mtb hypoxia rep growth
O=C(COc1ccccc1)NNC(=S)NC(=O)c1ccccc1	18	37	5	-18	4582	3	15
COc1ccc(C(=O)c2nc3c(n2O)CCCC3)cc1OC	2	1.8	6	-13	4898	/	/
COc1cc2c(cc1OC)C(SC)=NC1(CCCC1)C2	18	1.3	-1	-16	2210	5	-4
Cc1cc(-c2nnc(CCC(=O)N(C)Cc3ccsc3)o2)no1	9	1.4	-4	-16	2165	1	4
O=C(COC(=O)c1cc(S(=O)(=O)N2CCCCC2)ccc1N1CCOCC1)c1ccccc1	/	/	-4	10	4208	/	/
CCN1C(=O)C(=C2C=Cc3cc(C)ccc3N2CC)N(C)C1=S	4	8.2	/	/	/	/	/
CCN(CC)CCOC(c1ccccc1)c1ccc(C)cc1 (configuration not stated)	-3	-8.5	18	-17	2450	5	18
NC(=O)c1ccc[n+](CCC[n+]2cccc(C(N)=O)c2)c1	2	0.9	5	-7	4897	20	12
O=C(Nc1ccccc1C(=O)O)c1cccc(S(=O)(=O)Nc2ccc(Br)cc2)c1	-5	-2.1	-5	-8	2788	7	2
N#CC1=C2Nc3ccccc3N2C(=O)NC1(c1ccccc1)C(F)(F)F (configuration not stated)	-10	1.0	2	-19	2657	/	/
COC(=O)c1ccc(C2C(Oc3ccc(OC)cc3)C(=O)N2CCc2ccc(OC)c(OC)c2)cc1 (configuration not stated)	-2	1.4	4	6	10463	-15	-9
Cc1nc(SCC(=O)N2CC(=O)Nc3ccccc32)c2c(C)c(C)sc2n1	2	0.8	-5	-6	8903	5	10
CC(C(=O)NC1CCCC1)N(Cc1ccco1)C(=O)c1snc(C(=O)NC2CCCC2)c1N (configuration not stated)	2	0.4	-18	-14	9277	11	8
CCOc1cc(N2CCOCC2)c(OCC)cc1NC(=O)Cc1ccc(OC)c(OC)c1	6	2.1	/	/	9958	-7	-1
O=C(NNc1nc(-c2ccccc2)cs1)c1ccccc1	/	/	-5	10	22139*	/	/
CC(=O)Nc1ccc(NC(=O)c2ccccc2N(Cc2ccccc2)S(C)(=O)=O)cc1	9	4.0	-4	-3	3828	12	4
Cc1ccc(C2C(N)C(=O)N2c2ccc(C)cc2)cc1 (configuration not stated)	9	3.3	9	-20	3415	-3	-4
COC(=O)C1=C(c2cc3ccccc3s2)C[C@@H]2CC[C@H]1N2C(=O)NCc1ccco1	/	/	-8	-18	2995	/	/
COc1ccc(C(=O)NC(Nc2ccccc2)C(Cl)(Cl)Cl)cc1 (configuration not stated)	-4	5.4	-4	-12	3271	2	4
CSc1ccc(S(=O)(=O)NCC(=O)OCC(=O)N(C)C2CCCCC2)cc1[N+](=O)[O-]	2	4.4	4	-78	4406	-3	-4
O=C(Nc1nnc(-c2ccccc2)o1)Nc1ccccc1Cl	0	3.8	-12	-26	6098	8	8
CC1(C(=O)NN=Cc2ccccc2)CC1(Br)Br (configuration not stated)	-1	0.2	/	/	/	13	1
CC(SCc1cc(=O)n2c([nH]c3ccccc32)c1C#N)C(=O)O (configuration not stated)	4	-5.0	-2	-32	4138	6	5
CC(=O)c1sc(NC(=O)CS(=O)(=O)c2ccccc2)nc1C	2	-0.5	-1	-18	6384	3	9

Exported as comma-separated lines: two of the compounds above
Compound,ugtP null kill,RN4220 kill,BJeLR lethal,PrP 5UTR inh,Bead autofluor,Mtb hypoxia rep,Mtb hypoxia rep growth
O=C(Nc1nnc(-c2ccccc2)o1)Nc1ccccc1Cl,0,3.8,-12,-26,6098,8,8
CC1(C(=O)NN=Cc2ccccc2)CC1(Br)Br (configuration not stated),-1,0.2,/,/,/,13,1

Retrieved by compound from the list above:
SMILES	ugtP null kill	RN4220 kill	BJeLR lethal	PrP 5UTR inh	Bead autofluor	Mtb hypoxia rep	Mtb hypoxia rep growth
CC1(C(=O)NN=Cc2ccccc2)CC1(Br)Br (configuration not stated)	-1	0.2	/	/	/	13	1
CC(SCc1cc(=O)n2c([nH]c3ccccc32)c1C#N)C(=O)O (configuration not stated)	4	-5.0	-2	-32	4138	6	5
O=C(Nc1nnc(-c2ccccc2)o1)Nc1ccccc1Cl	0	3.8	-12	-26	6098	8	8
O=C(NNc1nc(-c2ccccc2)cs1)c1ccccc1	/	/	-5	10	22139*	/	/

Next entries.
SMILES	ugtP null kill	RN4220 kill	BJeLR lethal	PrP 5UTR inh	Bead autofluor	Mtb hypoxia rep	Mtb hypoxia rep growth
COc1ccc(Cl)cc1N(CC(=O)NC1CC1)S(=O)(=O)c1ccc(C)c([N+](=O)[O-])c1	0	3.4	8	-30	4214	-10	0
CCOC(=O)N1CCN(C(=O)CCc2c(C)nc3c(c(C)nn3-c3ccc(C)c(C)c3)c2C)CC1	0	-1.8	-7	-11	20186*	-10	2
O=C(CSc1ncn[nH]1)Nc1ccc(S(=O)(=O)Nc2ncccn2)cc1	8	4.4	-6	-1	3990	6	14
O=C(NCCC(=O)N1CCC2(CC1)NCCc1[nH]cnc12)c1cccc(Br)c1	4	2.7	-11	-24	5611	5	3
COc1ccc(N2CCN(C(=O)c3cc4cc(Cl)ccc4[nH]3)CC2)cc1	18	-2.1	8	-5	3775	-2	8
CC(=O)NC1CSCC1OC(C)=O (configuration not stated)	2	-8.1	-4	-24	3125	-1	0
CC(C)(C)NC(=O)NC(=O)COC(=O)CNC(=O)C1CCCCC1	2	2.8	8	-22	4384	0	17
CCN(CC)S(=O)(=O)c1ccc(N2CCOCC2)c(NC(=O)CSCc2c(C)noc2C)c1	6	7.9	/	-8	3495	5	7
COc1ccc(-c2nn(CCC#N)cc2C(=O)Nc2ccccc2Br)cc1[N+](=O)[O-]	8	2.1	-8	-26	5253	11	3
CC(=O)C1CCC2C3CCC4=CC(=O)C=CC4(C)C3CCC12C (configuration not stated)	-6	3.0	/	-1	3629	-9	5
CC1CN(C(C)CO)C(=O)c2cc(NS(=O)(=O)c3ccc(Cl)cc3)ccc2OC1CN(C)Cc1ccncc1 (configuration not stated)	3	3.2	/	/	/	3	11
Cc1nc(S(=O)(=O)Cc2ccccc2Cl)nc2c1CCC2	3	5.3	-6	-20	4832	6	1
O=C(CC=NOCc1ccc(Cl)cc1Cl)c1ccc(Cl)cc1	-2	6.1	/	/	/	5	13
COc1ccc(/C=C(\C#N)C(=O)OCC(=O)N(C)C2CCS(=O)(=O)C2)cc1 (configuration not stated)	4	1.0	-2	1	?	8	-3
O=C(Nc1cccc(F)c1)c1sc(Cl)nc1-c1ccccc1	-2	0.0	3	-12	2213	-1	2
O=S(=O)(NCc1cn2ccccc2n1)c1cccs1	1	1.3	3	-15	4657	-2	4
COc1ccc(CNC(=O)CN(c2cc(C)cc(C)c2)S(=O)(=O)c2c(C)noc2C)cc1	2	7.2	0	-1	5556	/	/
Cc1cccc(NC(=O)CSc2cc(C)c(C#N)c3nc4ccccc4n23)c1	14	16	3	-15	4202	-6	-10
CC1(C)C2CC=C(CN3CCC(O)CC3)C1C2 (configuration not stated)	1	3.4	-4	-16	16149*	4	3
CC(C)(C)c1ccc(Cn2nnc3c(=O)[nH]c(C4CCCN(C(=O)Cc5cccs5)C4)nc32)cc1 (configuration not stated)	27	7.7	0	/	8052	-2	-2
Cc1ccc(S(=O)(=O)N(C)c2ccc(N)cc2)cc1	2	5.8	6	-22	10646	17	6
O=C(NN=Cc1c[nH]c2ccccc12)c1ccn[nH]1	11	6.0	/	/	/	11	2
Cc1nn(Cc2c(Cl)cccc2Cl)c(Cl)c1C=NNC(=O)c1cccnc1	4	1.1	/	/	/	-1	6
Cc1ccc(S(=O)(=O)/N=C(/c2ccc(F)cc2)N2CCCC2)cc1	/	/	-8	-8	2617	/	/
Cc1ccc(SCCC(=O)NC2CC2)cc1	-5	6.5	2	-12	3159	14	13
C=CCOc1c(Br)cc(CNc2ccc3[nH]c(=O)[nH]c3c2)cc1OCC	-1	1.6	4	-15	4369	-3	4
CCOC(=O)c1sc2nc(C(C)C)c3c(c2c1N)CC(C)(C)OC3	-3	6.5	4	4	2432	/	/
CCCCN=CC1=C(O)C(C(=O)OC)C(C)(C)CC1=O (configuration not stated)	-3	-0.6	-1	-16	3591	/	/
CC1=C(C(=O)Nc2ccc(F)cc2)C(c2cccc(C)c2)n2nc(CCCO)nc2N1 (configuration not stated)	-3	-3.7	-5	-25	6253	/	/
CC(=O)N[C@@H]1CC[C@@]2(O)[C@H]3Cc4ccc(O)c5c4[C@@]2(CCN3CC2CC2)[C@@H]1O5	4	0.0	/	-24	7219	/	/
C=CCNC(=O)COC(=O)/C=C/c1cccs1	/	/	-7	-16	4366	/	/
CCCOc1ccc(-c2csc(NC(=O)CN3C(=O)CCC3=O)n2)cc1	-6	5.9	-12	-16	3104	2	3
COc1cc2cc(CCCOC(=O)c3cc(OC)c(OC)c(OC)c3)oc(=O)c2cc1OC	-1	3.5	/	-13	3870	-5	7
O=C(NNc1cc(Cl)ccc1Cl)c1cccs1	-3	-7.0	-1	-19	/	-5	-14
CC1(N2CCCCC2)CC2(O)C(=[N+]1[O-])CCC/C2=N\O (configuration not stated)	/	/	4	-22	4721	/	/
Cc1ccc(C(=O)NCCc2nnc3ccc(N4CCCC4)nn23)cc1	5	1.8	0	-8	?	-4	1
N=C1C2=C3Sc4ccccc4N3CCCC2=NN1c1cccc(S(=O)(=O)O)c1	11	2.2	-4	-59	5074	3	1
Cc1ccsc1C=NNC(=O)c1cc(-c2ccncc2)nc2ccccc12	-2	5.5	/	/	/	7	6
COc1ccc(-c2nnc3ccc(SCC(=O)Nc4nc5ccccc5s4)nn23)cc1OC	2	1.8	-13	9	1978	2	7
CC1CC(C)CN(c2oc(-c3ccccc3F)nc2C#N)C1 (configuration not stated)	9	5.5	-4	-14	3809	2	1
Cc1onc(-c2ccccc2)c1C(=O)Nc1ccc(OC(C)C)cc1	-8	8.6	1	-15	4842	/	/
O=C(CSc1ccc(-c2cccnc2)nn1)Nc1ccc(F)cc1F	-1	-1.0	-6	-42	5383	0	7
CCN(CC(=O)NCc1ccc(Cl)cc1)S(=O)(=O)c1ccc(F)cc1	13	0.3	-8	-41	3479	8	7
CC1CCCC(C)N1Cc1cn2ccccc2n1 (configuration not stated)	2	1.4	-6	-1	11511	2	7
Cc1ccc(Oc2ccc3c(c2)C(=O)N(c2ccc(S(=O)(=O)Nc4nccs4)cc2)C3=O)cc1	-8	3.8	-1	-14	10321	1	0
COc1cccc(NC(=O)/C=C/c2ccco2)c1	-2	0.5	3	-68	4303	-2	2
O=c1c2ccccc2c(-c2cccc(C(F)(F)F)c2)nn1-c1ccccc1	-14	-0.8	4	-23	3496	8	8
CC(=O)c1cccc(NC(=O)CC2S/C(=N/N=Cc3cccs3)NC2=O)c1 (configuration not stated)	0	3.9	/	/	/	18	10
CCCCCC1CC(=O)NC1(C(=O)OCC)C(=O)OCC (configuration not stated)	7	7.1	/	-13	3755	7	12
Cc1ccc2cc(C#N)c(NCc3ccco3)nc2c1	5	5.0	4	-11	9625	0	7
CCN1C(=O)CSC1=NS(=O)(=O)c1ccc(Cl)cc1	5	5.3	/	/	/	11	-3
CCn1c(C)nnc1SCC(=O)Nc1ccc(Cl)cc1	1	3.8	0	-3	4092	4	-13
CC(C)N(CCCNC(=O)C1CCC(CNS(=O)(=O)c2ccccc2)CC1)Cc1ccccc1 (configuration not stated)	10	3.4	-4	-13	6553	8	1
COc1ccc(OC)c2c1CCC2=O	3	1.2	-4	-33	2538	14	6
COc1ccc(Cn2c(O)c(C=NCCN3CCOCC3)c(=O)[nH]c2=O)cc1	-5	-2.5	-3	-21	3663	0	-3
OC(Cc1cccnc1)(Cc1cccnc1)c1cc2ccccc2[nH]1	-2	0.7	0	-20	7030	-5	0
Cc1cc(NC(=O)C2CCCN(S(=O)(=O)c3c(C)noc3C)C2)no1 (configuration not stated)	-18	1.2	-1	-13	5723	-5	6
Cc1cc(C)c(C#N)c(SCC(=O)NC(C)(C)C)n1	8	0.4	9	-1	6234	8	4
O=c1c2ccccc2[nH]c(=S)n1CCN1CCN(Cc2ccccc2)CC1	7	-2.4	-3	-16	9277	4	5
O=C(CCCCC(=O)NN=Cc1ccccc1O)NN=Cc1ccccc1O	-6	4.0	/	6	3926	2	13
Cc1ccc(C(=O)Nc2sc3c(c2C(=O)NCc2ccco2)CCCC3)cc1	2	-0.3	5	-32	4637	/	/
